Source: PubChem
Tgondii IFNg: blocks Toxoplasma gondii growth in the presence of IFN-gamma; actives 3.8% (n = 69,000); activity change, negative = inhibition, %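 (about 20 µM by stock and volumes)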; AID 1259416; Toxoplasma gondii growth in IFN-gamma-treated host cells; active compounds read low; reference of the scale not given here;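 active means below -70%; inconclusive means fit judged invalid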;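 further: host cells are HeLa cells infected with Toxoplasma gondii; parasite growth read as luciferase light; one replicate is shown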
Numbers without * were called inactive; i = inactive; u = inconclusive; & = joins results of further samples. A portion of the library. The share of hits here may be higher or lower than overall.

SMILES | Tgondii IFNg
Cc1cnc(Nc2cccc(C3CCCN3C(=O)CCOc3ccccc3C)n2)s1 (stereo not given) | -52
O=C(NCCc1ccccc1F)N1CCCCC1CCN1CCOCC1 (stereo not given) | 5
CCC(=O)Nc1ccc2c(c1)OC[C@H](C)N(Cc1ccccc1)C[C@H](C)[C@@H](OC)CN(C)C2=O | 173
COc1ccccc1CN(c1nc(CCN)nc2ccccc12)C1CC1 | 80
O=C1c2c(O)cc(O)cc2O[C@H](c2ccc(O)c(O)c2)[C@H]1O | -11
COc1ccc(-c2nnc(-c3nc(NCc4ccccc4C)c4ccccc4n3)o2)cc1 | 32
CCCNC(=O)N1CC2(C1)CN(C(=O)c1ccccc1)[C@H](CO)c1[nH]c3cc(OC)ccc3c12 | 147
C=C1C(N)CC2CC1C2(C)C (stereo not given) | 10
Cc1ccc(NC(=O)N2CCC3(CC2)NC(=O)c2ccccc2N3C)cc1C | -64
Cc1ncsc1CCC(=O)NCc1cnn2ccccc12 | -2
CC(C)(C)CC(=O)NCCc1csc(-c2ccc(F)cc2)n1 | 34
CO[C@H]1CC[C@H]2CCOc3ccc(C#N)cc3C(=O)N(C)C[C@H](c3ccccc3)CC(=O)N(C)C[C@@H]1O2 | -28
COc1ccc(-c2cc3c(=O)n(Cc4nc(-c5cccc(OC)c5OC)oc4C)ccn3n2)cc1OC | -9
Cc1ccc2[nH]cc(CCNC(=O)CC3CCN(C(=O)c4[nH]c(C)cc4C)CC3)c2c1 | 55
Cc1c(C(=O)C(F)(F)F)c2ccccc2n1CC(=O)N1CCc2ccccc21 | -4
O=C(NCc1scnc1-c1ccccc1)c1ccc(-n2cnnc2)cc1 | -4
CN(CC[C@@H](Oc1ccc(-c2ccccc2)cc1)c1ccc(F)cc1)CC(=O)O | 21&2
COc1c[nH]c(C(=O)N2CCCC(C(=O)c3ccc(Cl)cc3C)C2)cc1=O (stereo not given) | 4
COc1ccc(CN2C[C@@H]3CN(C(=O)c4ccnnc4)C[C@H]3C2=O)cc1 | 106
c1coc(-c2nc(CNC3CCC4(CCNCC4)CC3)no2)c1 | 63
CCOC(=O)N1CCC(NC(C)c2ncnn2CC)CC1 (stereo not given) | -3
COC(=O)c1ccc(-c2noc(-c3c(O)c4ccccc4n(C)c3=O)n2)cc1 | 65
Cc1ccc(-c2nc(C)c(CCNS(=O)(=O)c3ccc(Br)cc3)s2)cc1 | 123
Cc1occc1C(=O)N1CCC2(CC1)CC(OCc1ccccn1)CO2 (stereo not given) | 27
O=C(CC1CCCCC1)NCCc1csc(-c2ccccc2)n1 | i
CC[N+](CC)(CC)CCC(O)(c1ccccc1)C1CCCCC1 (stereo not given) | 22
Cc1ccccc1NC(=O)c1nnn(Cc2nc(-c3ccc(Cl)cc3)oc2C)c1C | -45
CCOc1ccc(CC(=O)N2CCN(S(=O)(=O)c3cc4c5c(c3)CCC(=O)N5CCC4)CC2)cc1 | -19
CC(C)NC(=O)CC1CC2(CCN(S(=O)(=O)c3ccccc3)CC2)Oc2ccccc21 (stereo not given) | -54
Cc1ccc(C2c3[nH]c4ccccc4c3CCN2C(=O)c2ccccc2)cc1 (stereo not given) | i
CCOC(=O)c1cnc(Nc2nc3ccccc3s2)nc1CSc1nccc(C)n1 | 50
O=C1C(=O)N2C(=C1C(=O)N1CCOCC1)c1ccccc1CC21CCCCC1 | -96*
Cc1ccc(-n2cc3ccccc3c2C#N)nc1 | 263
O=c1ccc2cc(S(=O)(=O)N3CCN(c4ccc(F)cc4)CC3)ccc2[nH]1 | -6
C=CCc1cc(Cl)ccc1OCCOCCN(C)C | -15
Cn1c(=O)n(C)c2cc(S(=O)(=O)N3CCOCC3)ccc21 | -1
CNC(=O)c1cnc(C)nc1CCNS(=O)(=O)c1cn(CC(C)C)nc1C | -33
CCc1c(O)cc(O)c(C(=O)c2ccc(OCCN3CCOCC3)c(OC)c2)c1CC(=O)N(CCOC)CCOC | -58
COc1nc(-c2ccccc2)c2cc(C)ccc2n1 | i
O=C(O)c1cn(-c2ccc(F)cc2)c2cc(Cl)c(F)cc2c1=O | 18

Part of the list above, field by field.
Cc1ccc(C2c3[nH]c4ccccc4c3CCN2C(=O)c2ccccc2)cc1 (stereo not given)
  Tgondii IFNg = i

CCOC(=O)c1cnc(Nc2nc3ccccc3s2)nc1CSc1nccc(C)n1
  Tgondii IFNg = 50

Next section
SMILES | Tgondii IFNg
O=c1/c(=C/c2ccccc2)sc2nnc(-c3ccc(Cl)cc3)n12 | 84
O=C(Nc1cc(F)cc(F)c1)c1c(O)c2cccnc2n(-c2ccccc2)c1=O | 40
CCN(CC)C(=O)c1cc(=O)n(CC(=O)Nc2c(C)cccc2C)c2ccccc12 | -3
CN1C(=O)c2cc(NS(=O)(=O)c3cccc(F)c3)ccc2OC[C@H]2O[C@H](CC(=O)NCCN3CCCCC3)CC[C@@H]21 | 14
COc1cccc(NC(=O)N[C@@H]2CC[C@@H](CC(=O)N3CCN(C)CC3)O[C@H]2CO)c1 | -40
CO[C@H]1CN(C)C(=O)c2ccc(NC(=O)C3CCC3)cc2OC[C@H](C)N(Cc2ccccn2)C[C@H]1C | 93
O=C(C[C@@H]1C=C[C@@H](NC(=O)c2ccncc2)[C@@H](CO)O1)NCC1CC1 | -8
CCCCc1ncc(-c2nccn2Cc2ccncc2)[nH]1 | 1
CCc1nc(OCC(=O)NCc2ccccc2)c2ccccc2n1 | 3
Nc1ccccc1Nc1nc2ccccc2[nH]1 | -17
CC(=O)Nc1ccc(Cl)c(C(=O)NCCCc2csc(N)n2)c1 | -41
CC(C)c1nccn1Cc1cc(C(=O)NCC2OCCc3ccccc32)n[nH]1 (stereo not given) | -2
COc1ccc(Cl)cc1-n1nc(C(C)C)nc1CSc1nnc(C)o1 | -10
CCOc1ccccc1CC(=O)N1C[C@@H]2[C@@H]3CC[C@@H](C3)[C@@H]2C1 | -4
CC(C)c1cc(C2CCN(C(=O)Cn3cnnn3)CC2)[nH]n1 | 0
CN1CCC2(CC1)N=C(c1cc(Cl)ccc1O)CC(c1ccccc1O)N2 (stereo not given) | 34
CC(=O)N1CCN(S(=O)(=O)c2cc3c4c(c2)CCC(=O)N4CCC3)CC1 | 8
CC(=O)Cn1c(=O)c2c(nc3n(C(C)C)c(C)c(C)n23)n(C)c1=O | -33
CN(Cc1cc2n(n1)CCNC2)CC1(c2ccccc2)CC1(C)C (stereo not given) | -2
CCOC(=O)CC(=O)Nc1ccc(-c2nc(-c3cc(C)ccc3C)co2)cc1 | -29
O=C(C[C@H]1CC[C@@H]2[C@H](COC[C@@H](O)CN2C(=O)c2ccccc2F)O1)NCc1ccc(Cl)c(Cl)c1 | -20
COc1cccc(COC2CN(CCc3ccccc3)C(=O)CN(C(=O)c3cc(C)[nH]n3)C2)c1 (stereo not given) | -6
COCCNc1c(C(=O)OC)c(=O)[nH]c2ccc(F)cc12 | 35
Cc1cc2nc(C)c(CCC(=O)N3CCCC(c4nc5ccccc5[nH]4)C3)c(C)n2n1 (stereo not given) | 4
CN(C)c1nc(N2CCCC2)nc2c1CCN(S(C)(=O)=O)CC2 | 6
CC(C(=O)c1ccccc1)n1nnc2ccccc2c1=O (stereo not given) | -20
O=C(c1ccccc1Cn1cccn1)N1CCCC1c1ccc2c(c1)OCCCO2 (stereo not given) | 7
Cc1cc(C)cc(-c2nnc(SCC(=O)N3CCc4ccccc43)o2)c1 | 6
COC(=O)C[C@@H]1CC[C@@H]2[C@@H](COc3ccc(NS(=O)(=O)c4ccc(C)cc4)cc3C(=O)N2C)O1 | -5
Cc1cccc(NS(=O)(=O)c2cccs2)c1 | 4
COc1ccc(Cc2ncc3c(n2)CN(c2ncncc2C(C)C)C3)cc1 | -3
CCOC(=O)c1csc(-c2sccc2COc2ccccc2)n1 | 65
COCCN1CCc2ncc(CNC(=O)CC3CC3)n2CC1 | 2
CCCn1cc(C(=O)N(C)CC2CCCCO2)c(C)n1 (stereo not given) | 7
CN(C)N=Nc1ccc(C(=O)O)cc1 | 24
Cc1ccc(S(=O)(=O)N2C[C@H](O)COC[C@@H]3O[C@@H](CC(=O)NCc4ccc5c(c4)OCO5)CC[C@H]32)cc1 | -21
O=C1CC2(CCCCN2CC2CC2)CN1c1ccccc1 (stereo not given) | -37
Cc1ncccc1Oc1ncnc(N2CC[C@@H](N3CCOCC3)[C@H](O)C2)c1C | 0
CCNC(=O)C1(Cc2ccccc2-c2ccncc2)CCCN(C(=O)c2cn[nH]c2C)C1 (stereo not given) | 15
COCC1CN(CC2CCOC2)Cc2ccnn2C1 (stereo not given) | -24

Arranged by molecular weight (largest number first): three of the compounds above.
SMILES | Tgondii IFNg
CC(C)NC(=O)CC1CC2(CCN(S(=O)(=O)c3ccccc3)CC2)Oc2ccccc21 (stereo not given) | -54
Cc1ncccc1Oc1ncnc(N2CC[C@@H](N3CCOCC3)[C@H](O)C2)c1C | 0
CN(C)N=Nc1ccc(C(=O)O)cc1 | 24

Remaining list, next part.
SMILES | Tgondii IFNg
COc1nc2c(cc1C(=O)NCCC1CN(C)CCO1)CCC2 (stereo not given) | -49
CCC(=O)NC[C@H]1[C@@H](c2ccc(-c3ccc(F)cc3)cc2)[C@@H](CO)N1C(=O)CC | -8
CCCN1CCC(c2nc3ccc(Nc4ccccc4)cn3n2)CC1 | -9
CCOc1ccc(CNC(=O)c2nc(Nc3ccc(C)cc3)c3ccccc3n2)cc1 | 10
Cc1ccc(C)n1-c1ccc(CC(=O)O)cc1 | 19
O=C(C[C@H]1CC[C@@H]2[C@H](COC[C@H](O)CN2S(=O)(=O)c2ccc(F)cc2)O1)NCCN1CCCCC1 | -8
O=S(=O)(c1ccc(F)cc1F)n1nccc1-c1ccc(-c2ccc(F)cc2F)o1 | -111*
COc1ccc(Cl)cc1NC(=O)Cn1ncc2c(N3CCCC3)ncnc21 | -81*
CC(C)Cc1nc2cc(NS(=O)(=O)N(C)C)cc(C(=O)N3CCc4ccccc4C3)c2n1C | -2
CO[C@@H]1CCN(C(=O)c2ccc3c(c2)OCO3)[C@H]1Cc1cccnc1 | 1
COc1ccc(-c2nn(-c3ccccc3F)cc2CNCCc2nc3ccccc3[nH]2)cc1 | -46
O=C(Nc1cccc(F)c1)N1CCCCN2[C@@H](CO)[C@H](c3ccc(C#Cc4cccnc4)cc3)[C@@H]2C1 | -57
O=C(Nc1ccccc1F)c1nc(Nc2ccc(Cl)cc2)c2ccccc2n1 | 40
CC(=O)c1ccccc1-c1ccc2nc[nH]c2c1 | -54
C[C@H](CO)N1C[C@H](C)[C@H](CN(C)Cc2ccc3c(c2)OCO3)Oc2ncc(-c3cccc(C(F)(F)F)c3)cc2C1=O | u
O=C(CC1CC1)N1CC2(C1)[C@H](c1ccccc1)[C@@H](CO)N2C(=O)c1ccccn1 | -59
COC(=O)c1c(NCc2ccc(OC)cc2)c2cccc(Cl)c2[nH]c1=O | -29
O=C(O)C1CC=CCC1C(=O)NCc1ccc2c(c1)OCO2 (stereo not given) | 10
COc1ccc2c3c(n(C)c2c1)[C@H](CO)N(Cc1ccc(Cl)cc1)CC31CN(C(=O)NC(C)C)C1 | -65
c1cncc(-c2ncnc3c2CCN(Cc2cccs2)CC3)c1 | -8
COc1c2ccoc2nc2c(OC)cccc12 | 0
CCCC(=O)NCCc1csc(-c2ccc(Cl)cc2)n1 | 12
COCC(=O)N1CCC2(C1)c1ccccc1S(=O)(=O)N2CC1CC1 (stereo not given) | 6
CN1CCCC(c2n[nH]c(=O)n2CCc2ccccc2)C1 (stereo not given) | -4
CC(C)CNc1nc2c(cc1C(=O)N(C)C)CCN(Cc1cccnc1)CC2 | 46
CC(C)C(=O)Nc1cccnc1-c1ccn[nH]1 | -3
CCN(Cc1nccn1C)C(=O)c1ccc(-c2csc3ccccc23)nc1 | 3
COc1ccc(-c2nc(N3CCN(c4ccccc4)CC3)c3ccccc3n2)cc1 | 51
COc1cc2c(cc1CN1CCC3(CCCNC3=O)CC1)CCCC2 | 20
COc1cc2c(cc1OC)C(c1sc3ccccc3c1Cl)=NCC2 | -113*

The list goes on, overlapping the part above by four compounds.
SMILES | Tgondii IFNg
CCN(Cc1nccn1C)C(=O)c1ccc(-c2csc3ccccc23)nc1 | 3
COc1ccc(-c2nc(N3CCN(c4ccccc4)CC3)c3ccccc3n2)cc1 | 51
COc1cc2c(cc1CN1CCC3(CCCNC3=O)CC1)CCCC2 | 20
COc1cc2c(cc1OC)C(c1sc3ccccc3c1Cl)=NCC2 | -113*
CCCc1cnc(N2CCCNCC2)nc1 | -31
CCOc1ccc(-c2nc(Cn3nnc(C(=O)Nc4ccc(Br)cc4)c3C)c(C)o2)cc1 | 89
CC1CCN(C(=O)c2cc(=O)n(CC(=O)Nc3ccc(C(C)C)cc3)c3ccccc23)CC1 | -29
Cc1cccc(C)c1NC(=O)CSC(=S)N1CCCC1 | 7
Cc1nc2ccc(C(=O)N3CCC(c4nc(-c5ncccn5)no4)C3)cc2s1 (stereo not given) | 8
C[C@@H]1CCCCO[C@@H](CN(C)S(=O)(=O)c2cn(C)cn2)[C@@H](C)CN([C@H](C)CO)C(=O)c2cc(NC(=O)Nc3cccc4ccccc34)ccc2O1 | 429
Cc1nc(C)c(CC(=O)N(C)CCn2ccc3ccccc32)c(=O)[nH]1 | 6
COCCNC(=O)C[C@@H]1CC[C@@H]2[C@H](COC[C@H](O)CN2C(=O)c2cc(Cl)cc(Cl)c2)O1 | -27
CCN1CCN(C(=O)Cn2cccn2)CC(Cc2ccc(-c3ccccc3)cc2)C1=O (stereo not given) | 3
COc1ccc(CC(=O)N2CCC3(CC2)Nc2ccccc2-n2cccc23)cc1OC | 22
C=CCN(C(=O)CCn1c(C)cc(C)nc1=O)C1CCCC1 | -2
COCCN1C(=O)CCc2cc(NS(=O)(=O)c3ccc(OC)c(Cl)c3)ccc21 | -5
CC(C)NC(=O)[C@H]1CCS(=O)(=O)[C@H]2CN(Cc3ccc(F)cc3)C[C@@H]12 | 2
